Source: PubChem
E coli growth = E. coli growth inhibition, primary screen, OD600 | Escherichia coli growth, 23 h; hits give low values | OD600 absorbance (no concentration beside the values) | 330,000 tested, 0.21% active;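 active = OD600 absorbance below the run mean of sample wells minus 3.6 SD, in any replicate, cut at about 0.56 in these data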;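 also: stock transfer was 300 nL into about 60 µL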
ALR inh = inhibitors of human ALR sulfhydryl oxidase, primary screen, biochemical, H2O2 detection, HRP-luminol luminescence, single point; FAD-linked sulfhydryl oxidase ALR (Homo sapiens), P55789; purified ALR, DTT oxidation; inhibition, % (no concentration beside the values); 290,000 tested, 3.8% active; AID 485317, 2010;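 active = mean and each replicate at 75% or more; inconclusive = only one of the two met; inactive = neither met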;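 also: stock transfer was 7.5 nL into about 7.5 µL; 0% = neutral wells and 100% = wells with inactivated enzyme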
Target sequence (P55789 whole entry, looked up): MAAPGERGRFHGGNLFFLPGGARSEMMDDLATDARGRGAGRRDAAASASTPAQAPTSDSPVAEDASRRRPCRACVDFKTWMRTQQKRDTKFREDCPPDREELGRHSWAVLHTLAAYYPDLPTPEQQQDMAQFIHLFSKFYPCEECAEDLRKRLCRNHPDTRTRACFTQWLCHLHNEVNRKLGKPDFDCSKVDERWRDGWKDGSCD
Vif A3G = inhibitors of Vif binding to APOBEC3G peptide, primary screen, biochemical, TR-FRET, GST-Vif 1-94, biotin-A3G peptide, dose response retest (AID 1117319) | TR-FRET GST-Vif / biotin-A3G peptide binding; higher % means a stronger effect; test concentration not given here; strong numbers were not always called active | 260,000 tested, 0.57% active | one-dose inhibition, %; IC50 in µM for titrated hits;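 active = above the screen mean plus three standard deviations and confirmed in dose response; inconclusive = results disagree or hit not tested in dose response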;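 also: Vif residues 1-94 fused to GST binding biotinylated APOBEC3G peptide 110-148; 0% = full assay without inhibitor and 100% = GST in place of GST-Vif; retest series ran down from 100 µM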
FGF22 binding = binders of human FGF22 protein, primary screen, FGF22 synaptogenesis inhibitor project, biophysical, thermal shift, single point. Fibroblast growth factor 22 (Homo sapiens), Q9HCT0. recombinant FGF22 thermal shift, SYPRO orange fluorescence; percent of sucrose octasulfate shift, DMSO zero. calls only at 9.99 µM. 340,000 tested, 1.5% active. AID 651658, 2012;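 active = melting point raised past a set limit in the mean and every replicate; inconclusive = no clear call; three in four hits are not shown here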
Target sequence (Q9HCT0 whole entry, looked up): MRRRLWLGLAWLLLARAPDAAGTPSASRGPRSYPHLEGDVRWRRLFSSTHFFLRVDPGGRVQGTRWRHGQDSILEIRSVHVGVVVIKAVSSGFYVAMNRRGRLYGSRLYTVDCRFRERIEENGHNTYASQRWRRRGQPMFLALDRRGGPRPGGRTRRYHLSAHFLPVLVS
MLL AF4-AF9 inh = inhibitors of AF4 peptide binding to AF9, primary screen, biochemical, AlphaScreen, biotin-AF4 peptide, FLAG-AF9, single point; Protein AF-9 (Homo sapiens), P42568; inhibition, % at 10 µM; 350,000 tested, 0.47% active; AID 651704, 2012;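 active = every replicate reaching a set inhibition limit, whatever the replicate mean, cut at about 25% in these data; inconclusive = mean inhibition reaches that limit but some replicates miss it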;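 also: 0% = plate neutral control median and 100% = total signal loss; the record names both 10 and 1 µM as test concentration; the first replicate is given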
HNF4A DNA FP = change in binding of human HNF4A to DNA, primary screen, biochemical, fluorescence polarization, FITC-DNA; Hepatocyte nuclear factor 4-alpha (Homo sapiens), P41235; 1 h; activity change, % at 10 µM; 360,000 tested, 0.3% active; in the data active = activity change above about 30%, passing the limit was not always enough;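 also: controls were the assay level and a saturating level of protein; the project sought stronger binding though the title names inhibitors; some compounds called inactive have numbers as strong as hits; positive values seem to mean higher polarization but the record does not say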
Target sequence (P41235 whole entry, looked up): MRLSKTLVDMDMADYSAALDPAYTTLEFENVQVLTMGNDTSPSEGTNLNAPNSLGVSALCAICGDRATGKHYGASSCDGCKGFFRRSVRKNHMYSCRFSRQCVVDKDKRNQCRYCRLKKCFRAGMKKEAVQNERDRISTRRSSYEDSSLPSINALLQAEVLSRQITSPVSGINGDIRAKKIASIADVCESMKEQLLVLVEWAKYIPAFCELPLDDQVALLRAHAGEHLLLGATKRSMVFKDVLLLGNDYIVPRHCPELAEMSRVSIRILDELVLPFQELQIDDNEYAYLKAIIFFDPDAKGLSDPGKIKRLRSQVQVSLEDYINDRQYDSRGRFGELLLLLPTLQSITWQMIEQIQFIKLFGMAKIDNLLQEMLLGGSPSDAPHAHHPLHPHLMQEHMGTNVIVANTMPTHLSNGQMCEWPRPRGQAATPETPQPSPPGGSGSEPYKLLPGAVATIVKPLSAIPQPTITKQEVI
Ecoli rRNA inh = reduced GFP signal of wild-type E. coli, primary screen, bacterial rRNA inhibitor project, GFP/RFP fluorescence, OD600, single point; E. coli WT GFP vs humanized-ribosome RFP mutants, 24 h; hits give low values; DMSO median 0, no signal -100; 350,000 tested, 1.6% active; GFP signal change (wild-type ribosome), % (concentration not given with the values); AID 720706, 2013;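 active = significant combined selectivity score with lowered wild-type GFP, culture density cut under 30%, mutant RFP and density less affected; inactive = any of these conditions unmet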; also: one replicate is shown; some compounds called inactive have numbers as strong as hits
Ecoli rRNA inh OD600 = second read-out of Ecoli rRNA inh, no call of its own (marks repeat the call); OD600 change, %; measured here: OD600 growth;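 optical density of the mix in the first replicate; 0 = DMSO median and -100 = no signal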
Ecoli rRNA inh RFP = also measured in Ecoli rRNA inh; calls as there; RFP signal change, %; measured here: RFP humanized mutant strains;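 first replicate; 0 = DMSO median and -100 = no signal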
An asterisk follows results filed as active; i = inactive; ? = inconclusive; / = not tested or not shown.

SMILES	Ecoli rRNA inh	Ecoli rRNA inh RFP	ALR inh	FGF22 binding	Ecoli rRNA inh OD600	Vif A3G	HNF4A DNA FP	E coli growth	MLL AF4-AF9 inh
CCC(=O)Nc1ccc(C(=O)OCC(=O)c2ccc(C)c([N+](=O)[O-])c2)cc1	/	/	-1.9	/	/	3.3%	-1.3	0.643	/
CCCN(C)C[C@@H]1Oc2ncc(C#CC3(O)CCCC3)cc2C(=O)N([C@H](C)CO)C[C@@H]1C	5.2	-0.7	/	i	10.4	/	/	/	-1.4
C/C(CC(=O)NC(C)(C)C)=N\NC(N)=S	17.6	1.7	1.1	i	17.7	-7.2%	3.8	/	-5.8
O=C(CNC(=O)[C@@H]1Cc2ccccc2CN1)NCc1ccco1	10.5	0.6	11.7	i	15.4	/	-6.3	0.69	-0.9
O=C(O)c1cccc(S(=O)(=O)Nc2ccccc2N2CCOCC2)c1	7.4	-1.6	1.6	i	2.7	11.1%	-3.1	0.666	-8.2
COC(=O)c1sccc1Oc1ccc(Cl)cc1N1C(=O)CCC1=O	13.6	1.2	-2.6	i	-0.2	-2.1%	-3.4	0.688	/
Cc1ccc(NC(=O)Cn2nc(C)c([N+](=O)[O-])c2C)cc1C	13.4	1.5	/	i	7.8	-4.0%	-1.7	0.723	-1.5
CC(C)NC(=O)N(C)C[C@H]1Oc2c(NC(=O)C3CCCCC3)cccc2C(=O)N([C@@H](C)CO)C[C@@H]1C	2.2	0.6	/	i	3.5	/	/	/	-3.3
COc1ccccc1CNC(=O)CN(C)S(=O)(=O)c1ccc(F)cc1	0.0	1.2	-4.7	i	-1.7	/	-3.1	0.633	0.7
COc1ccc(NC(=O)CN(C)C(=O)c2cnc(Cl)c(Cl)c2)cc1	-1.9	0.0	-1.9	i	-6.2	/	2.3	0.721	-2.9
CC1(CCCN2C(=O)c3ccccc3C2=O)OCCO1	4.6	-1.1	-6.9	i	6.3	/	-3.5	0.609	1.5
O=C(Cc1cccs1)NCc1cc(Cl)cc(Cl)c1	-22.6	-4.9	-16.6	i	-27.0	8.4%	-0.9	0.658	-6.0
CC(C)COC(=O)N1C[C@H](O)C[C@H]1C(=O)Nc1ccc(Cl)cc1	2.2	0.4	-2.7	i	1.3	-0.5%	1.4	0.66	0.7
CCCN(CCC)C(=O)c1ccc2c(c1)S(=O)(=O)c1ccccc1C2=O	-27.6	-1.4	-0.6	i	-33.6	/	-2.3	0.729	3.8
CCc1ccc(NC(=O)C(C)OC(=O)Cc2cc(OC)c(OC)c(OC)c2)cc1 (stereo not drawn)	3.8	2.1	/	i	-19.3	-5.1%	-4.0	0.704	2.5
C[C@H](NC(=O)c1ccccc1Cl)C(=O)OCC(=O)NNC(=O)c1cccs1	5.0	-0.5	/	i	5.9	6.2%	-0.5	0.691	-0.1
O=C(NCCCN1CCCC1=O)c1cc(S(=O)(=O)N2CCN(c3ccccc3)CC2)ccc1Cl	-3.1	-2.5	/	i	-3.3	/	0.9	0.706	1.1
CC(=O)Nc1cccc(C(=O)Nc2ccc(S(=O)(=O)NC3=NCCCCC3)cc2)c1	0.2	0.0	-2.2	i	2.9	-1.2%	3.2	0.695	-4.1
COc1ccc(OC)c(NC(=O)c2ccc3c(c2)C(=O)N(CC2CCCO2)C3=O)c1 (stereo not drawn)	20.1	-0.3	-3.7	i	1.6	-1.3%	-1.1	0.716	1.0
CO[C@H]1CN(C)C(=O)c2ccc(NC(=O)NC(C)C)cc2OC[C@H](C)N(C(=O)C2CCC2)C[C@H]1C	2.1	-0.9	/	i	0.7	/	/	/	0.0
CCCCCCOc1ccc(/C=c2\s/c(=C(/C#N)C(=O)NCc3ccco3)n(-c3ccccc3)c2=O)cc1	/	/	-4.1	/	/	-7.1%	9.3	/	/
C[C@@H]1CCCCO[C@@H](CN(C)C(=O)NC2CCCCC2)[C@H](C)CN([C@@H](C)CO)C(=O)c2cc(NC(=O)Nc3ccc(C(F)(F)F)cc3)ccc2O1	0.4	0.2	/	i	-0.5	/	/	/	-1.8
COc1ccccc1CN1CC(C(=O)NCc2ccc(SC)cc2)CCC1=O (stereo not drawn)	5.9	-0.4	/	i	3.6	0.6%	4.0	0.683	0.4
O=C(NCc1ccccc1)NC1CC2CCC(C1)N2Cc1ccco1 (stereo not drawn)	/	/	/	/	/	?	0.3	0.714	/
Cn1c(Cn2c(=O)sc3ccccc32)nnc1SCc1ccccc1F	3.1	1.4	/	i	-0.7	2.1%	3.1	0.699	-5.0
CC(C)(C)C(=O)NCCc1nc2ccccc2n1CC(=O)c1ccc(Cl)cc1	-17.4	6.6	-16.4	i	-37.3	-2.9%	-0.9	0.784	3.2
CN(C)C(=O)C[C@@H]1C=C[C@H](NC(=O)Nc2cccc(F)c2)[C@H](CO)O1	2.0	-0.8	/	i	2.8	/	/	/	-0.9
Cc1c(CCO)c(=O)n(-c2ccccc2)n1S(=O)(=O)c1ccc(F)cc1	/	/	7.7	/	/	?	5.6	0.745	/
C[C@H]1CN([C@@H](C)CO)C(=O)c2cc(NC(=O)CCN3CCOCC3)ccc2O[C@H]1CN(C)C(=O)Nc1ccc2c(c1)OCO2	1.0	-0.9	/	i	0.1	/	/	/	-3.3
O=C(O)C1=C[C@@H](C2CCCCC2)C[C@@H](OCc2ccc(CO)cc2)O1	3.6	6.5	2.9	i	4.0	-5.1%	-1.5	/	-1.7
CCc1c(C)sc(NC(=S)N2CCN(C(=O)C3CCCO3)CC2)c1C(=O)OC (stereo not drawn)	-2.7	-2.1	26.7	i	-8.9	/	5.3	0.672	-5.7
C[C@H]1CN([C@@H](C)CO)S(=O)(=O)c2ccc(-c3cncnc3)cc2O[C@@H]1CN(C)C(=O)CN(C)C	6.6	-0.2	/	i	5.3	/	/	/	-1.7
CCOc1cc(OCC)cc(C(=O)N2CCC[C@@H]2C(=O)N2CCC[C@H]2C(=O)NCc2ccncc2)c1	13.5	-2.1	/	i	8.3	/	5.1	/	2.6
NC(=O)NC(=O)CSc1ccccc1	16.3	1.6	-3.4	i	3.8	-9.0%	-1.6	0.665	-10.4
CCC(=O)N1CC2(C1)[C@H](c1ccc(-c3ccc(F)cc3)cc1)[C@H](CO)N2S(C)(=O)=O	-3.4	-0.4	/	i	-8.1	/	/	/	1.9
CSc1nsc(SCC(=O)Nc2ccc(NC(C)=O)cc2)n1	3.9	3.4	6.6	i	6.5	-6.7%	3.7	0.697	0.1
Cn1c(SCC(=O)Nc2ccc(C(N)=O)cc2)nc2c(c1=O)SCC2	/	/	99.0*	i	/	-0.3%	-2.2	0.682	-2.4
CCCCNC(=O)c1cc2cc(OC)ccc2[nH]1	-3.2	-0.3	-29.5	i	1.3	2.5%	5.0	0.628	/
CC(C)C(=O)OCC(=O)Nc1ccc(N=Nc2ccccc2)cc1	-20.6	-7.0	6.1	i	-24.8	/	-3.9	0.66	9.3
COc1ccc2c(c1OC)C(=O)N(c1ccccc1)C2=O	14.6	1.0	-6.3	i	12.4	-8.8%	-2.3	0.727	0.3
C#CCOCCOCCOCCNc1nc(N2CCN(C(=O)C([C@@H](C)CC)n3cc(C(N)CC(C)C)nn3)CC2)nc(N2CCN(C(=O)[C@H](CCC(=O)O)n3cc(C(N)Cc4ccc(O)cc4)nn3)CC2)n1 (stereo partly drawn)	/	/	-7.2	/	/	16.6%	2.4	/	/
COc1cc2c(cc1OC)C(C)N(C(=O)c1cc3c(s1)-c1ccccc1OC3)CC2 (stereo not drawn)	-10.8	-3.8	/	i	-15.4	-6.1%	0.5	0.798	-1.5
COc1ccc(F)cc1C(=O)C1CCCN(C(=O)C2=C(C)OCCO2)C1 (stereo not drawn)	4.0	-1.0	0.8	i	-0.4	3.3%	0.6	0.675	-0.1
C[C@H](NC(=O)C[C@@H]1CC[C@H]2[C@@H](COC[C@@H](O)CN2C(=O)Nc2cccc(F)c2)O1)c1ccccc1	-12.0	1.2	/	i	-6.7	/	/	/	-1.8
C[C@@H]1CCCCO[C@H](CN(C)C)[C@@H](C)CN([C@@H](C)CO)C(=O)c2cc(NS(=O)(=O)c3ccccc3)ccc2O1	0.8	-0.6	/	i	1.7	/	/	/	-4.8
C[C@H]1CN([C@@H](C)CO)C(=O)CCCn2nncc2CO[C@@H]1CN(C)C(=O)CCCN(C)C	1.2	-0.9	/	i	-5.3	/	/	/	-3.9
Cc1ccccc1OCCC(=O)N1CCN(S(=O)(=O)c2ccc(Br)cc2)CC1	-30.5	2.3	/	i	-25.4	2.1%	1.7	0.656	-1.6
COc1ccccc1CCNC(=O)C(=O)NCC1OCCN1S(=O)(=O)c1ccc([N+](=O)[O-])cc1 (stereo not drawn)	-5.6	-0.9	/	i	2.7	-5.3%	-1.3	0.669	2.2
Cc1cccc(OCC(=O)Nc2ccc(S(=O)(=O)Nc3onc(C)c3C)cc2)c1C	1.0	-2.3	52.9	i	-16.6	/	1.9	0.674	-0.3
CCC1(C)Cc2ccccc2-c2nc(NCCO)n(-c3ccccc3)c(=O)c21 (stereo not drawn)	/	/	1.6	/	/	1.5%	3.5	0.693	/
CC(C)(C)OC(=O)C[C@@H]1C/C=C\C[C@@H](CC(=O)N[C@H](CO)Cc2ccccc2)C(=O)N2CCC[C@H]2COC1=O	7.2	-0.9	-4.0	i	-2.0	/	-4.4	/	-4.7

Among those listed so far, 7 contain a Cl atom.
SMILES	Ecoli rRNA inh	Ecoli rRNA inh RFP	ALR inh	FGF22 binding	Ecoli rRNA inh OD600	Vif A3G	HNF4A DNA FP	E coli growth	MLL AF4-AF9 inh
COC(=O)c1sccc1Oc1ccc(Cl)cc1N1C(=O)CCC1=O	13.6	1.2	-2.6	i	-0.2	-2.1%	-3.4	0.688	/
COc1ccc(NC(=O)CN(C)C(=O)c2cnc(Cl)c(Cl)c2)cc1	-1.9	0.0	-1.9	i	-6.2	/	2.3	0.721	-2.9
O=C(Cc1cccs1)NCc1cc(Cl)cc(Cl)c1	-22.6	-4.9	-16.6	i	-27.0	8.4%	-0.9	0.658	-6.0
CC(C)COC(=O)N1C[C@H](O)C[C@H]1C(=O)Nc1ccc(Cl)cc1	2.2	0.4	-2.7	i	1.3	-0.5%	1.4	0.66	0.7
C[C@H](NC(=O)c1ccccc1Cl)C(=O)OCC(=O)NNC(=O)c1cccs1	5.0	-0.5	/	i	5.9	6.2%	-0.5	0.691	-0.1
O=C(NCCCN1CCCC1=O)c1cc(S(=O)(=O)N2CCN(c3ccccc3)CC2)ccc1Cl	-3.1	-2.5	/	i	-3.3	/	0.9	0.706	1.1
CC(C)(C)C(=O)NCCc1nc2ccccc2n1CC(=O)c1ccc(Cl)cc1	-17.4	6.6	-16.4	i	-37.3	-2.9%	-0.9	0.784	3.2

These rows are one share of the data; the hit share may differ from the screen's.
